NS1 inh – influenza NS1 inhibition | S. cerevisiae slowed by influenza A NS1, growth recovery by OD600 | Potency, µM (doses to about 46.1 µM), for inactives: at the top dose activity, positive = more growth | actives 0.4% (n = 270,000) | AID 2326; note: actives are rising curves; nearly all actives have a fitted effect of over 50% in size
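Read-out: OD600 growth recovery of NS1-expressing budding yeast. Cells grown overnight at 30C in -URA glucose medium, washed, resuspended and diluted 1:100 in 2% galactose assay medium, pH 6.0. Same strain lacking NS1 served as positive control.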
StopGo reporter – FMDV 2A StopGo reporter, luciferase signal | human cells with a luciferase reporter of 2A StopGo recoding; control for the full effect not named in the record | Potency, µM (highest dose often 57.9 µM), inactives show top-dose signal change, negative = less light | actives 1.2% (n = 410,000) | AID 1159524; active = well fitted falling curve with a large enough effect; inconclusive = small, poorly fitted or top-dose-only effect; inactive = no such curve, though single readings can be large or run the other way; tested in HEK293T cells; note: % is set by controls: 0 for no effect and ±100 for the full control effect; nearly all actives have a fitted effect of over 45% in size; luciferase light after 4 h
Cruzain inh noDet – blocks cruzain activity in detergent-free assay; P25779; purified cruzain, Z-FR-AMC fluorescence, no detergent; Potency, µM, inactives show max response, negative = inhibition, actives largely listed as inhibitors; actives 2.3% (n = 200,000); AID 1476; active = well fitted curve in the direction sought with a large enough effect; inconclusive = small, poorly fitted or top-dose-only effect, or another doubt; inactive = no such curve, though single readings can be large; an effect the other way counts as inactive or inconclusive;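 note: plate controls were enzyme without inhibitor for no effect and buffer without enzyme for full effect; nearly all actives have a fitted effect of over 40% in size; top concentration of the series not given in the record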
Target sequence (P25779 123-467 limits assumed): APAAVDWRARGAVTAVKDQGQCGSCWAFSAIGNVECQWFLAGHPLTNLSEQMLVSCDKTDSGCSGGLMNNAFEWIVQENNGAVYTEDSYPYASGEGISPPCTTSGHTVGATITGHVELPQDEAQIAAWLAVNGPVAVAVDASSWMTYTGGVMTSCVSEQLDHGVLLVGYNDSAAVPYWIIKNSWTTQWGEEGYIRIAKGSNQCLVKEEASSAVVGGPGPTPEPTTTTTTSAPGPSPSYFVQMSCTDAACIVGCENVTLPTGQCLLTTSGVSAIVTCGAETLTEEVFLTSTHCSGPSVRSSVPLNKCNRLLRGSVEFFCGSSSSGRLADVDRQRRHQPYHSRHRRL
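Detergent-free condition (0.00005% Triton X-100) in acetate buffer pH 5.5 with DTT. 1.5 nM enzyme and compound were pre-mixed 15 min, then 2 uM Z-FR-AMC substrate added; reaction progress from fluorescence change between first and third reads (60 s).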
Marburg entry inh – blocks Marburg virus binding to or entry into cells. Marburg virus pseudotyped entry inhibition, cell reporter; control for the full effect not named in the record; about a third of the inactives were read at about 46 µM. Potency, µM (series often up to 37.8 µM), for the others: top-dose activity change, negative = inhibition, actives largely listed as inhibitors. actives 1.8% (n = 300,000); active = well fitted inhibition curve with a large enough effect; inconclusive = small, poorly fitted or top-dose-only effect, or effect the other way; inactive = flat fitted curve, though single readings scatter; tested in HEK293 cells; about a fifth of its hits are not listed in these tables; note: % is set by controls: 0 for no effect and ±100 for the full control effect; luciferase read-out
Cruzain inh Det – cruzain (T. cruzi) inhibition with detergent | P25779 | Potency, µM, without a hit: max response, negative = inhibition, hits mostly inhibitors | actives 0.43% (n = 200,000) | purified cruzain, Z-FR-AMC fluorescence, 0.01% Triton | AID 1478; active = well fitted curve in the direction sought with a large enough effect; inconclusive = small, poorly fitted or top-dose-only effect, or another doubt; inactive = no such curve, though single readings can be large; an effect the other way counts as inactive or inconclusive;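 note: plate controls were neutral wells for no effect and buffer without enzyme for full effect; nearly all actives have a fitted effect of over 40% in size; top concentration of the series not given in the record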
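Purified cruzain (1.5 nM final) was preincubated with compounds for 15 min at room temperature in 100 mM sodium acetate pH 5.5, 5 mM DTT, 0.01% Triton X-100. Reaction started with 2 uM Z-FR-AMC; AMC fluorescence change over 60 s gave activity.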
RE007 growth inh – less growth of the S. pombe RE007 Vpr strain; S. pombe RE007 Vpr strain, BacTiter-Glo ATP luminescence, 24 h; control for the full effect not named in the record; Potency, µM (titrated, usually from 92.2 µM), inactives show at the highest dose activity change, negative = less growth; actives 0.21% (n = 360,000); active = well fitted falling curve with a large enough effect; inconclusive = small, poorly fitted or top-dose-only effect; inactive = no such curve, though single readings can be large or run the other way;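 note: % is set by controls: 0 for no effect and ±100 for the full control effect; nearly all actives have a fitted effect of over 50% in size; the assay follows cell death caused by Vpr and the record does not say whether a fall means rescue or toxicity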
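Fission yeast strain RE007, carrying one chromosomally integrated HIV-1 vpr copy, was seeded at OD 0.01 in PMG+AL medium with 23 nL pinned compound. After 24 h at 30 °C and 99% humidity, viability was read by BacTiter-Glo luminescence.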
SARS PLpro yeast – SARS-CoV PLP inhibition in yeast | AID 485353 | Potency, µM (top dose mostly 32.9 µM), without a hit: at the highest dose activity, positive = growth rescue | actives 0.19% (n = 330,000) | S. cerevisiae expressing SARS-CoV PLpro, growth rescue; control for the full effect not named in the record; note: 0% is about no effect; nearly all actives have a fitted effect of over 55% in size; growth read by luminescence after 48 h
LASV entry inh – blocks Lassa virus binding to or entry into cells; Potency, µM (titrated, usually from 37.9 µM), for the others: at the top dose activity change, negative = inhibition, hits mostly inhibitors; Lassa virus pseudotype entry inhibition, cell reporter; control for the full effect not named in the record; actives 1.2% (n = 300,000); active means well fitted inhibition curve with a large enough effect; inconclusive means small, poorly fitted or top-dose-only effect, or effect the other way; inactive means flat fitted curve, though single readings scatter; tested in HEK293 cells; note: % is set by controls: 0 for no effect and ±100 for the full control effect; nearly all actives have a fitted effect of over 50% in size; luciferase read-out
An asterisk follows results filed as active; ? = inconclusive; nt = not tested or not shown; & = joins results of further samples; [ ] = another dose, or the depositor's remark. Unless noted, calls come from the whole dose curve; as a rule, active means well fitted rising curve with a large enough effect; inconclusive means small, poorly fitted or top-dose-only effect; inactive means no such curve, though single readings can be large or run the other way. Potency is the fitted concentration of half-maximal effect.

Preview (3 entries):
SMILES | NS1 inh | StopGo reporter | Cruzain inh noDet | Marburg entry inh | Cruzain inh Det | RE007 growth inh | SARS PLpro yeast | LASV entry inh
CC1(C)CC2=C(CO1)C(=S)NC(c1ccccc1)N2CC1CCCO1 (stereo unspecified) | -2% | 18% | nt | 5%[46.1 µM] | nt | -7% | 0% | -2%
COc1ccc(C2C3=C(CC(C)(C)CC3=O)Oc3ncn(CCO)c(=N)c32)cc1OC (stereo unspecified) | -1% | 5% | 1% | -20% | -3.6% | -3% | 6% | -2%
COc1ccc(CNC(=O)C[C@H]2C[C@H](C(=O)N3CCCCC3)[C@@]3(C)c4[nH]c5cc(-c6ccco6)ccc5c4CCN3C2=O)cc1OC | nt | -32% | nt | 0% | nt | 0% | 3% | nt

Results, from the first entry:
SMILES | NS1 inh | StopGo reporter | Cruzain inh noDet | Marburg entry inh | Cruzain inh Det | RE007 growth inh | SARS PLpro yeast | LASV entry inh
CC1(C)CC2=C(CO1)C(=S)NC(c1ccccc1)N2CC1CCCO1 (stereo unspecified) | -2% | 18% | nt | 5%[46.1 µM] | nt | -7% | 0% | -2%
COc1ccc(C2C3=C(CC(C)(C)CC3=O)Oc3ncn(CCO)c(=N)c32)cc1OC (stereo unspecified) | -1% | 5% | 1% | -20% | -3.6% | -3% | 6% | -2%
COc1ccc(CNC(=O)C[C@H]2C[C@H](C(=O)N3CCCCC3)[C@@]3(C)c4[nH]c5cc(-c6ccco6)ccc5c4CCN3C2=O)cc1OC | nt | -32% | nt | 0% | nt | 0% | 3% | nt
Cn1ncc2c1ncn1nc(COc3ccc4ccccc4c3)nc21 | 4% | 2% | -2% | 3% | 4.8% | 0% | 7% | -3%
CCOC(=O)C1CCN(CC(C)(C)NS(=O)(=O)c2ccc(C)cc2)CC1 | -8% | -19% | nt | ? | nt | -11% | 6% | -2%
CC(=O)c1ccc(S(=O)(=O)Oc2ccc(C(=O)O)cc2Cl)cc1 | nt | -3% | nt | -5% | nt | -12% | -8% | -1%
CCOC(=O)C1CCCCN1Cc1cccc(OCc2ccccc2)c1 (stereo unspecified) | -21% | -13% | nt | nt | nt | -2% | -7% | nt
COC(=O)c1sccc1NC(=O)Nc1cc(C)cc(C)c1 | 2% | 26% | nt | 19%[46.1 µM] | nt | -5% | -7% | 13%[46.1 µM]
O=C(c1ccccc1F)N1CCN(Cc2cccc(Cl)c2)CC1 | -8% | ? | 2% | -6% | -4.7% | 5% | -17% | 0%
COCCNC(=O)CCn1nc(-c2ccc(Cl)cc2)c2ccccc2c1=O | -5% | 9%&-12% | 7% | ? | -2.9% | -1% | -2% | 13%&-3%[46.1 µM]
CC(=O)Nc1ccc(C(=O)CN2C(=O)NC3(CCCCCC3)C2=O)c(F)c1 | nt | 6% | nt | -6% | nt | -22% | 9% | -6%
Cc1ccccc1NC(=S)N1CCN(c2ccccc2Cl)CC1 | -2% | -25% | nt | -1% | nt | 21% | 4% | -25%
COC(=O)c1cc2c(cc1NC(=O)c1c(C)nn(-c3ccc(C)cc3)c1-n1cccc1)OCO2 | nt | -22% | -5% | nt | -2.4% | nt | nt | -11%[46.1 µM]
Cc1cc(C(=O)CSc2ncn[nH]2)c(C)n1-c1cccc(S(=O)(=O)N2CCOCC2)c1 | 19% | 28µM* | -8% | ? | -4.1% | 9% | -4% | 0%
C/C(=N\NC(=O)c1cccc(S(=O)(=O)N2CCCC2)c1)c1ccccc1F | nt | 44%[activator] | nt | ? | nt | 1% | 2% | -5%[46.1 µM]
COc1cccc([C@@H]2Oc3ccc(OC)cc3C(=O)[C@H]2OC(=O)N[C@H](C)C2CCCCC2)c1 | ? | nt | ? | 44% | -6.0%&-3.2% | nt | 5% | -1%
CC(C)CNC(=O)c1ccccc1NC(=O)c1ccc(CN2CCOCC2)cc1 | -9% | 9% | -3% | 1% | 1.5% | 2% | -6% | 24%
CC(C)CNC(=O)COc1cccc(C(=O)NCc2ccccc2)c1 | -3% | -9% | -3% | 2%[46.1 µM] | 0.3% | -16% | ? | 1%
O=C(Nc1cccnc1)Nc1cccc([N+](=O)[O-])c1 | -7% | 22% | nt | 6% | nt | -7% | -5% | 5%
C[n+]1cccc(C(=O)Nc2ccccc2)c1 | -1% | -9% | nt | nt | nt | -8% | -1% | nt
CCOc1cc(C2C(C(=O)OC)=C(C)N=C3SCCC(=O)N32)ccc1OC(C)=O (stereo unspecified) | 2% | 4% | 9% | -30% | -2.2% | 1% | 3% | -3%
CC(=O)Nc1cccc(C)c1 | nt | 0% | -1% | nt | 3.1% | 8% | -11% | nt
COCCn1c(-c2ccccc2)nc2oc3cc(OC)ccc3c(=O)c2c1=O | -41% | 11% | -5% | -7% | -5.5% | -14% | 4% | 0%
CCCCN(CCCNC(=O)Cn1nc(CC)n2c(cc3sc(C)cc32)c1=O)Cc1ccccc1 | -1% | -8% | nt | nt | nt | 3% | 7% | nt
C/C(=N\NC(=O)Cc1ccc(O)cc1)c1cccnc1 | -3% | 26% | nt | ? | nt | 11% | 2% | ?
COc1ccc(-n2c(COc3ccc(C)cc3)nnc2SCC(=O)O)cc1 | ? | -6% | nt | -8%[46.1 µM] | nt | 11% | 2% | 6%[46.1 µM]
COc1ccc(CNC(=O)CSc2nnnn2C)cc1OC | nt | -5% | nt | ? | nt | 1% | 1% | -15%[46.1 µM]
CCCCn1c(N)c(N(CC)C(=O)c2ccc(N(C)S(=O)(=O)c3ccc(C)cc3)cc2)c(=O)[nH]c1=O | nt | -15% | nt | -25%[46.1 µM] | nt | 32% | -5% | 8%
CCC(C)(C)NC(=O)C(NS(=O)(=O)c1cccs1)c1ccccc1 (stereo unspecified) | -2% | -26%&-2% | -13% | nt | -4.3% | 6% | -3% | 2%[46.1 µM]
CCOC(=O)C(NC(=O)c1ccccc1)(OCc1ccccc1)C(F)(F)F (stereo unspecified) | 6% | -6% | -4% | ? | -0.9% | -3% | 6% | 3%
CCOC(=O)N1CCN(C(=O)COc2ccc(Br)cc2Cl)CC1 | -21% | -24% | 27% | 13% | 5.5% | 9% | -8% | -17%
CCc1nnc(NC(=O)CCN2C(=O)CCC2=O)s1 | -5% | -1% | 0% | 2% | 2.7% | -4% | -1% | -15%
O=C(NC1CCCCC1)C1CCC(=O)N(Cc2cccc(C(F)(F)F)c2)C1 (stereo unspecified) | 6% | -19% | nt | -8% | nt | 2% | 17% | 0%
C=CCc1c(C)nn(CC(=O)O)c1-c1ccccc1 | 3% | -12% | 1% | 16% | 6.1% | -5% | 1% | 11%
O=c1[nH]ncc2c3ccccc3n(Cc3ccccc3)c12 | 9% | -24% | 2% | -9% | -5.6% | 25% | 1% | -1%
CCc1nc2ccc(C)cc2c(C(=O)NC2CCCCC2C)c1C (stereo unspecified) | -14% | -2% | 5% | -22% | -1.2% | 1%[3.69 µM] | 1% | -8%
COC(=O)N(NC(=O)C(O)(c1ccccc1)c1ccccc1)c1ccc(C)cc1 | -13% | -17% | 2% | ? | -2.5% | 19% | 0% | -2%
O=C(Cc1c[nH]c2ccccc12)NC1(C(=O)NC2CCCC2)CCCCC1 | nt | 15% | nt | -11%[46.1 µM] | nt | 5% | -3% | -29%
O=C(NCCN1CCCCC1)c1ccc(Cn2c(SCc3ccccc3)nc3cccnc32)cc1 | nt | 16% | 21% | ? | 2.1% | nt | nt | nt
O=C(NCCN1CCOCC1)c1cccc(S(=O)(=O)NCc2ccccc2)c1 | nt | -7% | nt | -2% | nt | -24% | -1% | -3%
CN(/C=C/C(=O)C(F)(F)F)Cc1ccccc1 | -13% | -16% | -2% | 5% | -2.8% | 6% | 4% | -11%
CCN(CC)CCn1c(-c2ccccc2)csc1=Nc1ccccc1 | nt | -26% | 1% | nt | -2.9% | nt | nt | ?
Cc1ccc(C)c(NC(=O)Cn2c(=O)oc3cc(S(=O)(=O)NCc4ccccc4)ccc32)c1 | nt | 12% | ? | -16%[46.1 µM] | -6.4% | nt | nt | nt
O=c1ccc(-c2ccc(S(=O)(=O)N3CCN(c4cccc(Cl)c4)CC3)o2)n[nH]1 | 6% | -8% | nt | -11%[46.1 µM] | nt | 2% | 4% | -2%[46.1 µM]
O=C(Nc1ccon1)c1sc2cc(F)ccc2c1Cl | 4% | 29% | -19% | 48% | 0.3% | 0% | -13% | -1%
NC(=S)N/N=C/c1coc2c(ccc3ccccc32)c1=O | 6% | 1% | 0.63µM* | -2% | ? | -11% | -36% | 1%
COc1ccc(S(=O)(=O)NCCc2nnc3ccc(SCC(=O)Nc4nc(C)cs4)nn23)cc1 | -5% | -7% | -4% | ? | -5.5% | 0% | -13% | 6%
NC1=C(c2ccccc2)C(=O)NC1=O | 0% | -14% | nt | nt | nt | -5% | 3% | nt
CC(C)CC(OC(=O)c1nsc(Cl)c1Cl)C(=O)NCC1CCCO1 (stereo unspecified) | -9% | 43%[activator] | nt | 32%[46.1 µM] | nt | -12% | -6% | -1%
COc1cccc(-c2nc(CS(=O)(=O)CC(=O)NC3CCCC3)c(C)o2)c1 | -10% | ? | nt | ? | nt | 4% | 24% | 4%[46.1 µM]
CC1(NC(=O)Nc2cccc(Br)c2)CCS(=O)(=O)C1 (stereo unspecified) | nt | -2% | nt | 9% | nt | 7% | 0% | 5%
Cc1ccc(S(=O)(=O)NCC(=O)N2CCCC2)cc1 | 4% | 39%[activator] | -7% | -4% | 3.3% | -6% | 5% | 14%
CCOC(=O)N1CCC(NC(=O)c2cc(S(=O)(=O)N3CCC4(CC3)OCCO4)ccc2F)CC1 | -3% | -24% | 20% | -1% | 2.8% | 12% | 4% | -2%
COc1cccc(CNC(=O)C2CCCN(S(=O)(=O)c3cnc[nH]3)C2)c1 (stereo unspecified) | -2% | -13% | 9% | nt | 1.4% | 1% | 0% | nt
C/C=N/NC(=O)c1cc(Br)ccc1O | -4% | 2% | 5% | ? | -2.4% | -4% | -7% | -1%

High-throughput results (PubChem)
